# Bioassay records: PubChem BioAssay, several laboratories
# UUG fidelity = modulators of start codon recognition fidelity in yeast | activity score, % at 18.7 µM | S. cerevisiae UUG-firefly luciferase reporter, luminescence/redox ratio | 0.13% of 350,000 active;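 active means replicate mean at a twofold rise or more, about +100% in these data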;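 further: firefly luciferase made from a UUG start codon reports start codon fidelity; reporter light over untreated wells divided by growth signal over untreated wells; some hits fall short of that in this replicate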
# PABP polyA inh = PABP-poly(A) binding inhibition. P11940. PABP-poly(A) RNA binding, fluorescence polarization. inhibition, % at 35 µM. 1% of 290,000 active. AID 2014;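 active means 50% or more with normal probe brightness, or confirmed in later tests; inconclusive means above 50% with abnormal brightness, or retests that disagree; inactive means below 50% or failed in later tests; about a fifth of its hits are not listed in these tables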;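 further: calls also rest on retests at 20 µM and on dose response follow-up; controls were probe without protein and protein plus probe with vehicle; some compounds called inactive have numbers as strong as hits; many hits fall short of the cut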
# Target sequence (P11940 whole entry, looked up): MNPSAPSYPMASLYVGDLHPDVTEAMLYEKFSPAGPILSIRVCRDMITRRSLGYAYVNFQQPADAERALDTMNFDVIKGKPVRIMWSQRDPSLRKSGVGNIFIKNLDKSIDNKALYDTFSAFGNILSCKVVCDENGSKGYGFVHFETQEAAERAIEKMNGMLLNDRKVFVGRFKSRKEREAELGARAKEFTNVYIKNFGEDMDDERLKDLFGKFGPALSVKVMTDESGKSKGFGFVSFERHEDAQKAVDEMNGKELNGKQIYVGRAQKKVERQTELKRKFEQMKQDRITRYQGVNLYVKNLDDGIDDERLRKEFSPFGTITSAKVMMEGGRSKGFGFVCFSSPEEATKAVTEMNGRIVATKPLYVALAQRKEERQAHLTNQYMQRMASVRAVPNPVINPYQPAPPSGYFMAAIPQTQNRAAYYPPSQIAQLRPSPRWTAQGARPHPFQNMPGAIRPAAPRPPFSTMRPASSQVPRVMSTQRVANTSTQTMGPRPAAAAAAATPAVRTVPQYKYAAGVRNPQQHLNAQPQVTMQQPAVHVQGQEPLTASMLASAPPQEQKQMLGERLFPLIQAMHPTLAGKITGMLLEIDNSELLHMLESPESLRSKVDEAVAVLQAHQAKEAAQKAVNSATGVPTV
# Rce1 inh = yeast Ras-converting enzyme inhibition; Q03530; yeast membranes, quenched prenylated peptide cleavage fluorescence; calls only; AID 2563; 0.27% of 290,000 active;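 active means fall in fluorescence gain of 50% or more versus controls, with final raw signal at or below 3038400; inconclusive means same 50% fall but final raw signal above 3038400; inactive means fall in fluorescence gain under 50%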;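 further: plate controls were neutral control wells for no effect and wells lacking membranes for full effect; tested at 10 µM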
# CSC inhib = blocks cancer stem cells; inhibition, % at 7.5 µM; 1.1% of 300,000 active; AID 2717; cancer stem cell-like cells viability, luminescence;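 active means mean at 75% or more and at least half the replicates too; inconclusive means mean and replicates disagree; tested in HMLE shEcad cells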;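 further: 0% = median of negative and 100% = median of positive control wells; the first replicate is given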
# MT1-MMP act inh = MT1-MMP (human) activation inhibition; P50281; HT1080 RFP-PRO-GFP cells, GFP/RFP ratio fluorescence, overnight; percent of plate control window, DMSO zero; GFP/RFP ratio change, % at 20 µM; 0.061% of 360,000 active;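 active means GFP/RFP ratio change of at least 30% with cell ATP level not reduced by more than half and red fluorescence within 50% of control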; further: strong numbers were not always called active
#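 Read-out: GFP/RFP fluorescence ratio; Test system: RFP-PRO-GFP reporter HT1080 cells; Compound dosing: single-point 20 µM compound, 1% DMSO; Times: overnight compound exposure at 37 °C.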
# eIF4H inh = inhibitors of RNA binding by human eIF4H; eIF4H fluorescence polarization binding assay; inhibition, % at 35 µM; 0.94% of 290,000 active;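 active means 50% or more with normal probe brightness, or confirmed in later tests; inconclusive means above 50% with abnormal brightness, or retests that disagree; inactive means below 50% or failed in later tests; about a fifth of its hits are not listed in these tables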;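 further: calls also rest on retests at 20 µM and on dose response follow-up; 0% = protein and probe with vehicle and 100% = probe without protein; strong numbers were not always called active; many hits fall short of the cut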
# Env fusion inh = blocks HIV Env-driven cell-cell fusion; HeLa-JRFL Env/CEM21 cell fusion, luciferase; inhibition, % at 12.3 µM; 1.1% of 360,000 active;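 active means mean replicate inhibition score of at least 50 and every replicate individually at or above 50; inconclusive means only one of the two criteria met; inactive means mean below 50 and not all replicates reaching 50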;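 further: 0% = plate neutral controls and 100% = maraviroc near 300 nM; one replicate is shown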
# MT1-MMP act inh RFP = also measured in MT1-MMP act inh; calls as there; RFP signal change, %; measured here: RFP expression control read;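 0 = vehicle wells; hits needed this value within 50% of zero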
# * marks the source's active call; other numbers are inactive results; i = inactive; ? = inconclusive; / = no result given; & = joins results of further samples. This is a random part of the collection, and some 2.9% of all compounds hit somewhere here.
# Values in the order: Rce1 inh, PABP polyA inh, MT1-MMP act inh RFP, MT1-MMP act inh, eIF4H inh, Env fusion inh, UUG fidelity, CSC inhib
- COc1ccc(NC(=S)Nc2ccc(F)cc2)c(OC)c1
    i, /, 0, -1, /, /, -21, /
- COc1ccc(C(=O)C2CCCN(Cc3c(F)ccc(F)c3F)C2)c(OC)c1 (stereo not given)
    i, 0, -4, -2, -3, 10, -18, 9
- Cc1ccccc1S(=O)(=O)Cc1ccc(C(=O)NCc2ccccc2)o1
    i, 3, 3, -2, 0, 4, /, -14
- COc1ccc(NC(=O)NCCCCc2ccccc2)c(OC)c1
    i, 2, 2, 6, -15, 3, -13, 1
- COc1ccc(CCNC(=O)/C=C/C(=O)O)cc1
    i, 1, 5, 3, 1, -11, /, 3
- CCS(=O)(=O)N1CCN(c2ccc(Cl)cc2[N+](=O)[O-])CC1
    i, -8, 0, 5, 2, 2, -7, -5
- CCCCCn1c(SCc2cccc(C)c2)nc2c1c(=O)[nH]c(=O)n2C
    i, -1, -10, -2, -11, 24, -12, -4
- O=c1[nH]c(C2CCN(S(=O)(=O)c3ccc(S(=O)(=O)NC4CC4)cc3)CC2)nc2c1nnn2Cc1cccc(F)c1
    i, -2, -5, 2, 1, 8, 2, -16
- Cc1[nH]c(C)c(S(=O)(=O)Nc2ccccc2)c1C(=O)N1CCCC1
    i, -2, 3, 2, -4, 6, -13, -16
- Cc1ccc(OC(=O)c2cc(=O)c3ccccc3o2)cc1
    i, 10, 2, 5, -7, 2, -6, 11
- COc1cccc(NC(=O)CSCC(=O)O)c1
    i, 3, 5, 9, 5, -13, -12, -7
- CCc1ccc(S(=O)(=O)Nc2c(C)nc3nc[nH]n3c2=O)cc1
    i, 3, /, /, 0, -14, -10, -6
- COc1ccc(-c2oc(=O)c3cc(OC)c(OC)cc3c2C#CCCO)cc1
    /, /, 5, 9, /, -34, -5, /
- CCOc1ccc(CN2CCN(C(=O)c3cccc(F)c3)CC2)cc1
    i, -7, -12, 4, -5, /, -21, 1
- CC(=O)Nc1ccc2[nH]ccc2c1
    i, -7, 0, -1, 0, -7, -16, 8
- CCCCCCCC(=O)C(C)C(=O)N(C)[C@H](Cc1ccc(OC)cc1)C(=O)N(C)[C@H](C(N)=O)C(C)C (stereo not given in full)
    /, /, 0, 0, /, 1, 3, /
- Fc1ccc(NC(=S)Nc2cc(Cl)ccc2Cl)cc1
    /, 2, 3, -6, -8, 2, /, -13
- COc1ccc(NC2CCCN(C(=O)CCc3cccc(F)c3)C2)cc1 (stereo not given)
    i, 4, 0, -7, -10, 23, 0, 3
- Cc1nc(-c2ccc(Cl)cc2)sc1C1(C)CC(c2ccc(Br)cc2)=NO1 (stereo not given)
    i, /, 2, -1, /, -18, 4, 28
- C[C@H](CO)N1C[C@H](C)[C@H](CN(C)S(=O)(=O)c2ccccc2)Oc2ccc(NC(=O)NC3CCCCC3)cc2CC1=O
    /, /, -1, -4, /, 87*, 3&-14, /
- COC(=O)c1ccccc1S(=O)(=O)C(C)(C)C
    i, 16, -1, 0, -6, -52, -18, -6
- Cc1ccc(Cc2cnc(NC(=O)C3CCCO3)s2)cc1 (stereo not given)
    i, 4, 1, 4, -4, /, -26, -3
- COc1ccccc1CCC(=O)OCC(=O)Nc1ccc(C)c(S(=O)(=O)N2CCCCC2)c1
    i, /, 6, 6, /, 0, -18, -12
- Cc1cccn2cc(CCNC(=O)c3ccc(Br)o3)nc12
    i, -7, 2, 1, 12, 17, -17, -3
- COc1ccc(NC(=O)c2cccnc2NCCc2ccccc2)cc1
    i, 0, 0, -6, 3, 11, /, 1
- O=C(Cn1nc(-c2ccc(Cl)cc2)c2ccccc2c1=O)Nc1cccnc1
    i, -14, -9, 2, 7, -67, /, -8
- COc1ccc(-c2cc3nc(CCl)[nH]c(=O)c3s2)cc1
    i, -5, -1, -2, -11, 32, -64, 43
- CCNC(=S)NNC(=O)c1ccccc1Cl
    i, -4, -1, -1, -12, /, /, -8
- CC12CCC(=O)C=C1CCCC2=O (stereo not given)
    /, /, 1, -2, /, 22, -25, /
- CC1CCN(C(=O)COC(=O)c2ccccc2NCCO)CC1
    /, /, 3, 3, /, 5, -19, /
- O=C(O)c1cc2c(cc1NC(=O)c1ccccc1OC(F)F)OCCCO2
    i, 2, -2, 2, -10, 2, -6, -7
- C=CCNC(=O)/C(=C\c1ccc(Br)cc1)NC(=O)c1ccccc1OC
    i, -6, 0, -2, 0, 15, /, -7
- CCCN(C(=O)c1nc2nccc(C)n2n1)c1c(N)n(Cc2ccccc2)c(=O)[nH]c1=O
    /, /, 0, 0, /, 9, -4, 4
- CCCCCC(=O)Nc1c2c(nc3ccccc13)CCC2
    i, 5, -2, -1, -1, -16, -13, -5
- CCN(Cc1ccccc1)C(=O)c1[nH]c2ccc(OC)cc2c1C
    i, 6, 0, 4, -10, -1, 4, /
- O=C(CSc1nc(Nc2ccccc2)nc(N2CCOCC2)n1)N1CCc2ccccc21
    /, -3, -11, -5, 1, /, -14, 37
- CC1(C)CC(=O)C2=C(C1)Nc1ccccc1S2
    i, ?, -7, -14, ?, 11, -22, -6
- COc1ccc(/C=C/C(=O)c2c(C)nc3ccccn23)cc1
    i, 6, -7, -3, 2, -7, -30, -6
- CCOc1ccccc1C(=O)NC(C(=O)NCc1ccc(F)cc1)C(C)C (stereo not given)
    i, 1, 1, 2, -12, 4, 10, -14
- Cc1ccc(C(=O)NCC(=O)Nc2ccc(C)c(S(=O)(=O)Nc3ccc(Cl)cc3)c2)s1
    i, -4, -5, -1, -8, -14, /, /
- CCOc1ccc(NC(=O)c2ccc(S(=O)(=O)N3CCOCC3)cc2)cc1
    i, 0, -4, 0, 0, -1, -12, -13
- O=C1c2ccccc2C(O)(c2ncc[nH]2)N1CCc1ccccc1 (stereo not given)
    i, 0, 1, -1, -5, /, -19, 8
- O=C(Nc1ccc2ccccc2c1)c1ccccc1[N+](=O)[O-]
    /, /, 3, 0, /, -5, -38, /
- COc1cc(NC(=O)c2nnn(Cc3ccc(SC)cc3)c2N)cc(OC)c1
    i, -2, -2, 6, -2, -21, -7, 28
- O=C(Cn1c(=O)n(Cc2ccc(F)cc2)c(=O)c2ccccc21)NCC1CCCO1 (stereo not given)
    i, -2, -2, -1, -5, 7, -9, 2
- CC(C(=O)Nc1ccc2nccnc2c1)N1C(=O)C2C3C=CC(C3)C2C1=O (stereo not given)
    i, -4, 4, 1, -11, -3, -13, -17
- O=C(Cc1cccc2ccccc12)NN1C(=O)/C(=C\c2cccnc2)SC1=S
    i, 14, 5, -3, 0, -5, -11, -3
- CCOc1ccccc1OC(=O)c1cc2ccccc2oc1=O
    i, -18, 5, 2, -1, 5, /, 3
- Cc1cc(NS(=O)(=O)c2ccc(NC(=O)c3ccc([N+](=O)[O-])cc3)cc2)nc(C)n1
    /, /, 1, 6, /, -4, 7, /
- CC(Oc1ccc(Cl)cc1Cl)/C(N)=N/O (stereo not given)
    i, -7, 3, 1, -9, -4, /, -6
- COc1ccccc1NC(=O)CN1C(=O)NC(CC(C)C)C1=O (stereo not given)
    i, 5, 5, -1, -10, -48, -10, -5
- CCN(CC)S(=O)(=O)c1cccc(-c2nnc(SCc3ncc(-c4ccccc4)o3)n2C)c1
    i, 12, 1, 4, 14, -56, -2, -1
- CN1CCN(c2ccc(NC(=O)c3cc4ccccc4o3)cc2)CC1
    i, -6, -1, -5, -9, -28, -24, 12
- COc1ccc(-c2cc(C(=O)Nc3cc(Br)ccc3O)no2)cc1
    i, -42, 7, 4, -22, -27, -6, 2
- CCCCCC[N+](C)(C)CC/C=C1/c2ccccc2Sc2ccc(Cl)cc21
    i, 4, -18, -20, -6, 8, /, 6
- CC(C)(C)N(Cc1ccccc1)C(=O)COC(=O)c1ccc2ccccc2n1
    /, /, 6, 2, /, -16, -10, -10
- COC(=O)N1[C@H](C)C=C[C@]1(Cc1ccccc1)C(=O)O
    i, -11, 5, -1, -10, -8, 17, -9
- Cc1cc(C)n(C(=O)CNC(=O)C2COc3ccccc3O2)n1 (stereo not given)
    i, -5, 4, -4, 11, /, 6, -5
- Cc1ccc(OCC(=O)NC(=S)Nc2ccc(S(=O)(=O)Nc3cc(C)on3)cc2)c(Br)c1
    i, 8, 0, 1, 0, -1, -2, -9
- O=C(CSc1nnc(-c2cccnc2)n1Cc1ccco1)c1ccc(Br)cc1
    /, 7, -2, -2, -11, -32, -44, -22

# One compound at a time, from the list above. Order of screens: Rce1 inh, PABP polyA inh, MT1-MMP act inh RFP, MT1-MMP act inh, eIF4H inh, Env fusion inh, UUG fidelity, CSC inhib
# Results for CCCN(C(=O)c1nc2nccc(C)n2n1)c1c(N)n(Cc2ccccc2)c(=O)[nH]c1=O : /, /, 0, 0, /, 9, -4, 4
# Results for O=C1c2ccccc2C(O)(c2ncc[nH]2)N1CCc1ccccc1 (stereo not given) : i, 0, 1, -1, -5, /, -19, 8
# Results for CCOc1ccc(NC(=O)c2ccc(S(=O)(=O)N3CCOCC3)cc2)cc1 : i, 0, -4, 0, 0, -1, -12, -13

# Other compounds
# Values in the order: Rce1 inh, PABP polyA inh, MT1-MMP act inh RFP, MT1-MMP act inh, eIF4H inh, Env fusion inh, UUG fidelity, CSC inhib
- COc1cccc(/C=N/NC(=O)N/N=C/c2cccc(OC)c2O)c1O
    i, 6, -18, 5, 10, 48, -16, 15
- COc1ccc(NC(=O)C2CCN(c3cnccn3)CC2)cc1OC
    i, 4, 0, 0, -19, -3, -7, -7
- CCC(COC)NCc1cn(-c2ccc(OC)cc2)nc1-c1cccc(F)c1 (stereo not given)
    i, -11, 0, -1, -12, ?, 6, -4
- CC(=O)Nc1ccccc1NC(=O)c1ccccc1
    i, -14, 5, 5, -5, -18, /, 3
- Cc1ccc(CN2CC(C(=O)Nc3cccc(C)n3)CC2=O)cc1 (stereo not given)
    i, /, 3, 3, /, -2, -22, -9
- Cc1ccc(OCc2ccccc2C)c([N+](=O)[O-])n1
    i, 4, 3, 4, 4, 3, -5, 4
- Cc1cc(NC(=O)CSc2ccc3nnc(-c4cccc(F)c4)n3n2)no1
    i, 8, 1, 6, 0, /, -12, /
- O=C(Nc1nnc(-c2ccccc2)s1)c1cc(S(=O)(=O)N2CCOCC2)c(Cl)cc1Cl
    i, 15, 2, -2, -4, -38, -7, 32
- O=C(Nc1cccc(NS(=O)(=O)c2ccc(S(=O)(=O)NC3CC3)cc2)c1)c1ccccn1
    /, 8, -2, 4, -4, -28, /, 4
- CN1CCC(=O)N(CCSc2ccc(Br)cc2)CC1
    i, -2, 5, 3, -1, -21, -17, -1
- O=C(Cn1nnc(-c2ccccc2)n1)NC1CCS(=O)(=O)C1 (stereo not given)
    i, /, 1, 1, /, -4, -6, /
- Cc1ccc(CNCc2cc(Cl)ccc2O)cc1
    /, /, 2, 0, /, 10, -23, 7
- Cc1c(NC(=S)NC(=O)C(c2ccccc2)c2ccccc2)cccc1C(=O)O
    i, 4, 4, 1, -4, -32, -10, -1
- COCCNCCCOc1ccc(Cl)cc1Br
    i, 6, 1, 6, -1, 7, /, 4
- CCn1nnnc1SCC(=O)c1ccc(NC(C)=O)cc1
    i, 1, -3, -4, 3, -86, -9, -7
- Cc1ccc2c(c1)-c1nc3ccccc3cc1C2=NC1CCCCC1
    /, 11, 3, 4, -6, -61, /, 38
- COc1ccc(-n2nc(C(=O)NCC(=O)NCCCN3CCN(C)CC3)c3ccccc3c2=O)cc1OC
    i, -9, 3, 2, 7, 3, -18, 29
- COc1ccc(CCNC(=O)CCn2cccc2)cc1OC
    i, 1, 4, 0, -11, /, -3, 17
- COc1ccc(NCC(=O)Nc2cc(S(=O)(=O)N3CCOCC3)ccc2N2CCOCC2)c(OC)c1
    i, -6, 1, 3, -4, -5, /, -14
- CN1C(=S)SC2CS(=O)(=O)CC21 (stereo not given)
    i, 2, 7, 2, -5, -12, -16, -6
